VDR inh = blocks the human vitamin D receptor. Potency, µM, for the others: max response, negative = inhibition, actives largely listed as inhibitors. VDR-SRC2-3 peptide fluorescence polarization, 2 h. 0.93% of 400,000 active; active = well fitted inhibition curve with a large enough effect; inconclusive = small, poorly fitted or top-dose-only effect, or another doubt; inactive = no such curve, though single readings can be large or run the other way; also: series mostly up to about 120 µM
Target sequence (P11473 whole entry, looked up): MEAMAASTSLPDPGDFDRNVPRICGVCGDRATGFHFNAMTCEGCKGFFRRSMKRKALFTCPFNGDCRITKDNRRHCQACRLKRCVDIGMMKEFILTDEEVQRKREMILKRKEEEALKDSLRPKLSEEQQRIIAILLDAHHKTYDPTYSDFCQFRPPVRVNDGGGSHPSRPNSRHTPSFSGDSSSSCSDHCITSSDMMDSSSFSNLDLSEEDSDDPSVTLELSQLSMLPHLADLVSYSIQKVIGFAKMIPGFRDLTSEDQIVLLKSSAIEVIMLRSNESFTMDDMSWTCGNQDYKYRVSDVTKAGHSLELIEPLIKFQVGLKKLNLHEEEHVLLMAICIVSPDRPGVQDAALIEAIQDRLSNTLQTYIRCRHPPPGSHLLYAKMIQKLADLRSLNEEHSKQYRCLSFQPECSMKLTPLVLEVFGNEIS
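VDR–SRC2-3 interaction, FP format. Cmpds 23 nl via pintool, brief spin, 2 h ambient incubation.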
The depositor's hits bear a star. % is scaled to controls: 0 for no effect and ±100 for the full control effect; potency is read from the fitted curve at half-maximal effect. An excerpt; rates above refer to the full screens.

COc1cccc(-n2nnnc2SCC(=O)NC2CCCC2)c1 was read as VDR inh -3%.
`COc1cc(NC(=O)c2cc(C)on2)cc(OC)c1OC` gave VDR inh 0%.
For CCCOc1nc(C)cc(COC)c1C(N)=O the results were VDR inh 15%.
O=c1[nH]c(CN2CCc3ccccc32)nc2scc(-c3cccs3)c12 was read as VDR inh -2%.
`O=C(NCCc1ccccc1)c1cccs1` gave VDR inh 5%.
CCc1ccc(/C=C2\Oc3ccc(C(=O)OC)cc3C2=O)cc1 was read as VDR inh -3%.
Cc1cccc(NC(=O)NC(=S)NC(=O)c2ccccc2)c1 was read as VDR inh -10%.
Screening CCN(C(=O)Cn1c(=O)n(Cc2ccc3c(c2)OCO3)c(=O)c2ccc(C(=O)NC3CCCCC3)cc21)c1cccc(C)c1 returned VDR inh 0%.
For CC1Cc2nc(SCC(=O)N3CCN(c4ccccc4)CC3)n(C)c(=O)c2S1 (centres undefined) the results were VDR inh 11%.
`CSc1ccccc1C(=O)N(C)Cc1ccccc1` gave VDR inh -8%.
`CCN(CC)C(=S)NC(=O)c1ccc(F)cc1` gave VDR inh -12%.
Screening O=C1C=C(c2ccc(CO)cc2)C[C@@H](c2ccc3c(c2)OCO3)C1 returned VDR inh -30%.
CCOc1ccc(N(CC(=O)NC2CCCC2)S(=O)(=O)c2c(C)[nH]c(=O)[nH]c2=O)cc1 was read as VDR inh -15%.
Cc1ccc(Cl)cc1NC(=O)CCCN1C(=O)CCn2nc(-c3cn(C)c4ccccc34)cc21 was read as VDR inh 7%.
For CC1(C)Cc2c(cnn2-c2cccc(F)c2)C(NC(=O)C2CCOCC2)C1 (centres undefined) the results were VDR inh -9%.
Screening Cc1cc(Cl)c(C(=O)Nc2cccc(C(F)(F)F)c2)c(C)n1 returned VDR inh -5%.
Screening CC1=C(C(=O)Nc2ccccc2)C(c2cccc(O)c2)n2nc(-c3ccccc3Cl)nc2N1 (centres undefined) returned VDR inh -19%.
Cc1ccc2c(c1)N(C(=O)CCC(=O)NC1CCC(C)CC1)CCO2 (centres undefined) was read as VDR inh 9%.
Screening CCc1ccccc1NC(=O)CSc1nnc(-c2ccncc2)o1 returned VDR inh -25%.
`COc1ccc(CNS(=O)(=O)c2cc(CN3C(=O)c4cccnc4C3=O)ccc2OC)cc1` gave VDR inh -8%.

Structures from the list above that contain an aryl methoxy group (3):
COc1cccc(-n2nnnc2SCC(=O)NC2CCCC2)c1 was read as VDR inh -3%.
`COc1cc(NC(=O)c2cc(C)on2)cc(OC)c1OC` gave VDR inh 0%.
`COc1ccc(CNS(=O)(=O)c2cc(CN3C(=O)c4cccnc4C3=O)ccc2OC)cc1` gave VDR inh -8%.

Next section:
O=c1c2c3c(sc2nc2n1CCCC2)CCC3 was read as VDR inh 13%.
For CCN1C(=O)CCN(C2CCCC2)c2nc(Nc3ccc(C(=O)NC4CCN(C)CC4)cc3OC)ncc21 the results were VDR inh -14%.
COc1ccc(N2CCOCC2)c(NC(=O)c2cc3ccccc3o2)c1 was read as VDR inh 2%.
`CC1(C)NC(=O)N(CCOc2ccc3c(c2)CCC3)C1=O` gave VDR inh -19%.
C=COC(=O)CSc1snc(SCC(=O)OC)c1C#N was read as VDR inh -5%.
Screening NS(=O)(=O)c1ccc(N=Nc2c(-c3ccccc3)[nH]n(-c3nc(-c4ccccc4)cs3)c2=O)cc1 returned VDR inh -3%.
Cc1c(C(=O)N2CCN(Cc3ccccc3)CC2)oc2c1C(=O)CCC2 was read as VDR inh -11%.
COc1cc(OC)cc(C(=O)NC(=S)NNC(=O)[C@H]2C[C@@H]2c2ccccc2)c1 was read as VDR inh -5%.
For CCCCc1ccc(NC(=O)CSC2=NN3CCCC(=O)N=C3S2)cc1 the results were VDR inh 13%.
`COc1ccc2c(CNCc3ccco3)c(C(=O)O)n(Cc3ccc(F)cc3Cl)c2c1` gave VDR inh 2%.

The last two compounds of the section before are carried over, then new ones follow:
For CCCCc1ccc(NC(=O)CSC2=NN3CCCC(=O)N=C3S2)cc1 the results were VDR inh 13%.
`COc1ccc2c(CNCc3ccco3)c(C(=O)O)n(Cc3ccc(F)cc3Cl)c2c1` gave VDR inh 2%.
Screening COc1ccc(NC(=O)CC2SC(=O)NC2=O)cc1 (centres undefined) returned VDR inh -2%.
`C#CC(N)CCC(=O)O` (centres undefined) gave VDR inh 1%.
Screening COc1cccc2c(=O)n(CC(=O)N3CCCCCC3)ccc12 returned VDR inh -14%.
CCOC(=O)C1CCCNC1=O (centres undefined) was read as VDR inh -10%.
For O=C(/C=C/c1cccs1)c1ccc(NC(=O)c2ccccc2F)cc1 the results were VDR inh -26%.
For COc1ccc(CN(C)C(=O)Cc2c[nH]c3ccccc23)cc1 the results were VDR inh 3%.
CC(C)N(C(=O)[C@H]1C[C@H](CC(=O)NCc2cccc(C(F)(F)F)c2)C(=O)N2CCc3c([nH]c4ccc(Cl)cc34)[C@]12C)C(C)C was read as VDR inh -11%.
For Cc1ccc(NC(=O)Cc2c(Cl)cccc2Cl)cc1S(=O)(=O)N(C)C the results were VDR inh -13%.
Screening O=C(Nc1ccc([N+](=O)[O-])cc1)c1ccc(Cn2cc([N+](=O)[O-])cn2)cc1 returned VDR inh -1%.
`CN(CC(=O)Nc1cccc(F)c1)C(=O)c1csc2c1CCCC2` gave VDR inh -4%.
For CCNC(=O)c1cc(Br)ccc1Cl the results were VDR inh 4%.
For O=C1CN(C(=O)CSc2nc(-c3ccc(Cl)cc3)cs2)c2ccccc2N1 the results were VDR inh -8%.
Screening CCOC(=O)C1(CCc2ccccc2)CCN(C(=O)CCc2cnccn2)CC1 returned VDR inh 3%.
O=C(COC(=O)/C=C/c1ccc(OC(F)F)cc1)Nc1ccc2[nH]c(=O)[nH]c2c1 was read as VDR inh 10%.
`CCOC(Cn1ccc(=O)[nH]c1=O)OCC` gave VDR inh -5%.
Screening COc1ccc(C(=O)Nc2cccc(-c3cnc4ccccc4n3)c2)cc1 returned VDR inh 1%.
For Nn1c(SCc2ccc([N+](=O)[O-])cc2)nc2ccccc2c1=O the results were VDR inh 1%.
Screening Cc1ccc(C(=O)OCC(=O)Nc2nc(-c3ccccc3)cs2)cc1NC(=O)c1ccco1 returned VDR inh -10%.
COc1ccc(OC)c(NC(=O)C2CCN(Cc3cnn(-c4ccccc4)c3-n3cccc3)CC2)c1 was read as VDR inh 3%.
For CC(C)NC(=O)c1ccc(Cn2c(=O)c3cccn3c3cccnc32)cc1 the results were VDR inh -3%.
COc1ccc(N(CC(=O)Nc2cccc(C(F)(F)F)c2)S(C)(=O)=O)cc1 was read as VDR inh 9%.
CC(C)NC(=O)c1cc(=O)n(C)c(=O)n1C was read as VDR inh 2%.
For CCCN1CN=C(Nc2nc3ccccc3o2)NC1 the results were VDR inh -1%.
O=C(NC(=S)NNC(=O)c1ccccc1O)c1ccco1 was read as VDR inh -13%.
`COc1ccc(C(=O)OCC(=O)NCCc2ccc(F)cc2)cc1S(=O)(=O)N1CCOCC1` gave VDR inh -2%.
For Cc1ccc(S(=O)(=O)N2CCN(C(=O)Cc3ccccc3)CC2)cc1C the results were VDR inh inconclusive.
`O=C(Nc1ccc(N2CCCCC2)cc1)c1cc([N+](=O)[O-])cc([N+](=O)[O-])c1` gave VDR inh -2%.
`CC(C)(C)NC(=O)CCN1CCOCC1` gave VDR inh 12%.
`CN(Cc1ccccc1)C(=O)c1ccc(NC(=O)Cc2ccc(NC(=O)C3CCN(C(=O)CCc4ccccc4)CC3)cc2)cc1` gave VDR inh -18%.
Screening CCCN1CNC(=S)N(CC2CCCO2)C1 (centres undefined) returned VDR inh -5%.
COc1ccc([C@H](NC(=O)OC(C)(C)C)C(=O)OC(C)(C)C)cc1 was read as VDR inh -6%.
For COC1(OC)C(=N/O)/C(=N\O)CCC1O (centres undefined) the results were VDR inh -9%.
CC(C)c1ccc(N2C(=O)CSC23C(=O)N(C)c2ccccc23)cc1 (centres undefined) was read as VDR inh 12%.
Screening C/C(=N\NC(=S)Nc1ccc(F)cc1)C1CC1 returned VDR inh 12%.
For N#CCCN(Cc1cccnc1)C(=O)Nc1cccc(Cl)c1 the results were VDR inh 2%.
Screening CC1CCC(NC(=O)CCS(=O)(=O)c2ccc3c(c2)oc(=O)n3C)CC1 (centres undefined) returned VDR inh -9%.
Screening CCCCOc1ccc(C(=O)NCC(=O)N2CC(C)CC(C)C2)cc1 (centres undefined) returned VDR inh 4%.
COc1cccc(CN2CCN(c3ccc(F)cc3)C2=O)c1 was read as VDR inh 10%.
`O=C(O)CCSc1ncnc2sc(-c3ccccc3)cc12` gave VDR inh -12%.
COc1cccc(CNCc2ccc3c(c2)OCO3)c1 was read as VDR inh -9%.
Screening O=[N+]([O-])c1ccc(-c2cn3c(n2)CCC3)cc1 returned VDR inh 3%.
Screening Cc1ccccc1CN1CCN(CC(=O)NCc2ccccn2)C1=O returned VDR inh -2%.
CCN1C(=O)N(CN2CCOCC2)C2C1N(CN1CCOCC1)C(=O)N2CC (centres undefined) was read as VDR inh -6%.
COc1cc(Br)cc(CN2CCN(C/C=C/c3ccccc3)CC2)c1O was read as VDR inh -12%.
`CCOC(=O)C1(Cc2ccc(OC)cc2)CCN(C(=O)c2ccc3[nH]ccc3c2)CC1` gave VDR inh -5%.
For Cc1cccc(-c2nc3scc(CCNS(=O)(=O)c4ccc5c(c4)OCCO5)n3n2)c1 the results were VDR inh 19%.
`Cn1c(Oc2ccc(F)cc2F)c(C=O)c2ccccc21` gave VDR inh -3%.
Screening Cc1nc(NS(=O)(=O)c2ccccc2)sc1NC(=O)Nc1ccc(Cl)cc1 returned VDR inh -10%.
For C=CCN1C(=O)C(CC(=O)NCC)SC1=Nc1cc(Cl)ccc1Cl (centres undefined) the results were VDR inh -11%.
`COc1ccc(CNC(=O)C(=O)NCC(c2cccnc2)N2CCN(c3ccccc3F)CC2)cc1` (centres undefined) gave VDR inh 13%.
`CN(C)CCCNC(=O)c1cc(C(=O)c2c(Cl)cccc2Cl)c[nH]1` gave VDR inh -14%.
Screening CC(NC(=O)c1ccc2c(c1)N(Cc1ccc(Cl)cc1)C(=O)c1ccccc1S2(=O)=O)c1ccccc1 (centres undefined) returned VDR inh 3%.
For COc1ccc(CCNC(=O)CN(C)S(=O)(=O)c2ccc(Br)s2)cc1OC the results were VDR inh -3%.
Screening CN(C)CCOCCOc1ccc(Cl)cc1C(C)(C)C returned VDR inh 3%.
For Cc1cc(C(F)F)n2nc(C(=O)O)nc2n1 the results were VDR inh 2%.
`CC(C)c1ccc(-c2csc3nc[nH]c(=O)c23)cc1` gave VDR inh -2%.
Cn1ccnc1SCC(=O)c1ccc([N+](=O)[O-])cc1 was read as VDR inh 9%.
`COc1ccc(NC(=O)CSc2ccc3ccccc3c2)cc1S(=O)(=O)N1CCCCC1` gave VDR inh 11%.
For Cc1cc(N(C)/N=C/c2ccccc2O)nc(-c2ccccc2O)n1 the results were VDR inh 10%.
O=C(Cc1cccs1)N(CC1CCCO1)C1(C(=O)NC2CCCC2)CCCCC1 (centres undefined) was read as VDR inh -4%.
NS(=O)(=O)c1ccc(CCNC(=O)C2(S(=O)(=O)c3ccc(Cl)cc3)CC2)cc1 was read as VDR inh 11%.
For CCn1nc(C)cc1C(=O)Sc1cccc(Br)c1 the results were VDR inh inconclusive.
For Cc1nnc(SCCN2C(=O)c3ccccc3C2=O)[nH]c1=O the results were VDR inh -5%.
`Cc1ccc2cc(CN(Cc3ccco3)C(=O)NCc3ccccc3)c(=O)[nH]c2c1C` gave VDR inh -1%.
`COc1ccccc1C(=O)Nc1ccc2c(c1)CCCN2C(=O)c1ccccc1` gave VDR inh inconclusive.
`COc1ccc(S(=O)(=O)N2CCC(C(=O)NC(c3nc4ccccc4[nH]3)C(C)C)CC2)cc1` (centres undefined) gave VDR inh -3%.
Screening O=C(CSc1nc(-c2ccccc2Cl)ns1)NCc1ccco1 returned VDR inh 5%.
COc1cc(NC(=O)CCc2c(C)nc3nc(C)nn3c2C)cc(OC)c1 was read as VDR inh 2%.
Screening CCOC(=O)C1CCCN(c2c(Nc3ccc(OCC)cc3)c(=O)c2=O)C1 (centres undefined) returned VDR inh -9%.
`Cc1cc(C)cc(OCC(=O)N/N=C\c2cn(C)nc2C)c1` gave VDR inh inconclusive.
`CCC(C(=O)N1CCN(c2ccc(OC)cc2)CC1)n1nc(C)n2c(cc3occc32)c1=O` (centres undefined) gave VDR inh 11%.
COc1ccc(Cn2c(C(=O)O)c(CNCc3ccc(C)o3)c3ccc(C)cc32)cc1 was read as VDR inh 0%.
CCSc1nnc(NC(=O)COc2ccc(Cl)cc2)s1 was read as VDR inh -6%.
For CCN(CC)C1=N/C(=C\c2ccc(OC)cc2)C(=O)N1c1ccccc1 the results were VDR inh -9%.
Screening CC(C)(C)C(=O)Nc1ccc(C(=O)NCc2cccnc2)cc1 returned VDR inh 8%.
`O=C(c1cnn(Cc2ccccc2)c1)N1CCN(S(=O)(=O)/C=C/c2ccccc2)CC1` gave VDR inh 19%.
For C=CCNc1cc(C)oc(=O)c1C(=O)CCC the results were VDR inh -4%.
`Fc1ccc(-n2ncc3c(N4CCCCCC4)ncnc32)cc1` gave VDR inh -2%.
For Cn1c(SCc2ccc(F)cc2Cl)nc2ccccc2c1=O the results were VDR inh -14%.
CN=C(Nc1cc(C)nn1-c1ccccc1)c1ccccc1 was read as VDR inh -13%.

7 entries already listed, ordered by molecular weight, lowest first.
For C=CCNc1cc(C)oc(=O)c1C(=O)CCC the results were VDR inh -4%.
CN=C(Nc1cc(C)nn1-c1ccccc1)c1ccccc1 was read as VDR inh -13%.
`Fc1ccc(-n2ncc3c(N4CCCCCC4)ncnc32)cc1` gave VDR inh -2%.
For Cn1c(SCc2ccc(F)cc2Cl)nc2ccccc2c1=O the results were VDR inh -14%.
For CCN(CC)C1=N/C(=C\c2ccc(OC)cc2)C(=O)N1c1ccccc1 the results were VDR inh -9%.
COc1ccc(Cn2c(C(=O)O)c(CNCc3ccc(C)o3)c3ccc(C)cc32)cc1 was read as VDR inh 0%.
`O=C(c1cnn(Cc2ccccc2)c1)N1CCN(S(=O)(=O)/C=C/c2ccccc2)CC1` gave VDR inh 19%.

Screening data deposited in PubChem BioAssay by National Center for Advancing Translational Sciences (NCATS).
